Screens: PubChem, Center for Chemical Genomics, University of Michigan
CDC25B CDK2 inh – primary biochemical HTRF screen for blockers of M-phase inducer phosphatase 2 binding to CDK2/cyclin A; z-score (no concentration beside the values); AID 1259370, 2018; 94,000 tested, 0.72% active; HTRF CDC25B-CDK2/CyclinA binding, anti-His/anti-Flag; active compounds read high;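 also: score is relative to mean and SD of negative controls; strong numbers were not always called active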
HIV TAR-Tat – TAR RNA-Tat peptide displacers, HIV-1, primary screen, biochemical, FRET, FAM/TAMRA-labeled Tat; 100,000 tested, 0.6% active; HIV-1 TAR RNA, Tat peptide displacement FRET; active compounds read high; z-score (test concentration not listed);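 also: score is relative to mean and SD of negative controls; some compounds called inactive have numbers as strong as hits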
The depositor's hits bear a star; . = not tested or not shown.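 The calls were made as follows: active = z-score from 3 up in half or more of its runs; inactive = the rest.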

Value order – CDC25B CDK2 inh, HIV TAR-Tat
Nc1ccc(Br)cc1C(O)c1ccc(Cl)cc1 (stereo not drawn)
→ ., 0.14
C=CCn1c(SCC(=O)c2c(C)[nH]c3ccccc23)nnc1-c1ccccc1
→ -1.2, 0.29
O=C1COc2ccc(S(=O)(=O)N(CCc3ccccc3)Cc3ccccc3)cc2N1
→ ., 2.8
CCOC(=O)c1cc(S(=O)(=O)N2CCn3c2nc2ccccc23)cn1C
→ -0.66, .
CCOC(=O)N1CCc2c(sc3c2C(=O)NC(c2ccc(OCC)cc2)N3)C1 (stereo not drawn)
→ -0.36, 0.15
CSc1nc2nc(C)c(Cc3ccc(Br)cc3)c(=O)n2[nH]1
→ -0.88, -2.4
Cc1ccc2cccc(NC(=O)c3oc4cc(Br)ccc4c3C)c2n1
→ -1.2, 2
Cc1cc(C)c(NC(=O)NC2COc3ccccc3C2)c(C)c1 (stereo not drawn)
→ ., 0.26
O=C(CSc1ncnc2ccccc12)NCc1ccco1
→ -1.1, .
COc1ccc(CNC(=O)CN2C(=O)CC(C)(C)Sc3ccccc32)cc1
→ -2.6, .
COc1ccc2c(=O)c(-c3ccccc3)coc2c1
→ -0.63, .
CCOCc1ccc2oc(C(=O)OCCN(CC)CC)cc2c1
→ -0.29, 0.59
CCc1c(C)nc2nc(NCc3cc(F)cc(F)c3)[nH]n2c1=O
→ -0.85, -0.79
O=S(=O)(c1ccc(-c2noc(-c3ccccc3)n2)cc1)N1CCOCC1
→ -0.39, .
Cc1oc(-c2cccs2)nc1Cn1c(=O)cc(C(F)(F)F)c2c(C)nn(C)c21
→ ., 0.62
CC1CC(NC(=O)C(=O)c2c[nH]c3ccccc23)CC(C)(C)C1 (stereo not drawn)
→ -1.5, .
Cc1ccc2c(n1)sc1c(=O)n(-c3ccc(Br)cc3)nnc12
→ -1, -0.05
Cc1ccc(Cn2c(CO)cnc2SCc2c(F)cccc2Cl)cc1
→ ., 1.2
O=C1CC(c2ccc(F)cc2F)c2c(nc(SCc3ccc(F)cc3)[nH]c2=O)N1 (stereo not drawn)
→ -1.1, 0.4
O=C(Cn1c(=O)oc2cc(S(=O)(=O)NC3CCCCC3)ccc21)N1CCCCCC1
→ -0.88, .
O=C(CSc1nccn(-c2ccccc2)c1=O)Nc1cccc(Cl)c1
→ ., 0.4
Cc1ccc(-c2noc3ncnc(NCCCN4CCN(C)CC4)c23)cc1
→ ., 2.4
NS(=O)(=O)c1ccc(NC(=O)C2CCCN(c3ncnc4c3nc3n4CCCCC3)C2)cc1 (stereo not drawn)
→ ., -1.6
O=C(NCCc1cccs1)c1cc2cccc3c2n1CCS3
→ ., 0.11
O=c1cc(-c2ccccc2)nc2nc(Cc3ccccc3)[nH]n12
→ -2, -0.34
COc1cccc(NC2=C(Cl)C(=O)OC2OC(C)C)c1 (stereo not drawn)
→ -1.3, .
CC(C(=O)Nc1cccc(N=Cc2c(O)ccc3ccccc23)c1)c1ccccc1 (stereo not drawn)
→ ., -0.92
O=c1ccc(N2CCN(S(=O)(=O)c3cccc4nsnc34)CC2)nn1-c1ccc(F)cc1
→ ., -0.37
O=c1[nH]c2ccc(Cl)cc2c(-c2ccccc2)c1Sc1ncn[nH]1
→ -0.81, .
Cn1c(=O)c2cc(C(=O)N3CCC(N4CCCCC4)CC3)sc2c2ccccc21
→ -1.9, 0.08
COc1ccc(OCc2nc(-c3ccc(OC)c(OC)c3)no2)cc1
→ 0.98, 0.33
CCc1nnc(NC(=O)c2cc(=O)c3cc(C)ccc3o2)s1
→ -0.81, 0.61
Clc1ccc(-c2nc(CN3CCOCC3)cs2)cc1
→ -0.35, .
Cc1nnc2ccc(N3CCc4ccccc4C3)nn12
→ -0.96, -0.83
COc1ccc(CNC(=O)c2cnn3c(C(F)F)cc(C4CC4)nc23)cc1
→ -1.2, .
CCC(CC)n1[nH]c(=O)c2c(C)cc(=O)[nH]c21
→ 0.58, -0.48
COc1ccc(OC)c(Nc2ncnc(N)n2)c1
→ -1.6, .
CCOc1ccc(CN2CCc3nc(N4CCCC4)ncc3C2)cc1
→ ., 2
Cc1cn2c(=O)c(S(=O)(=O)Nc3ccc(Br)cc3F)c(C)nc2s1
→ ., 0.09
O=C1C2CCC(C(O)C2)N1Cc1ccccc1 (stereo not drawn)
→ -1.2, .
CN1C(=O)C(C)(C)c2cc(S(=O)(=O)NCCCN3CCN(C4CCCCC4)CC3)ccc21
→ ., 1.2
O=C(O)Cn1c2ccccc2c2nc3ccccc3nc21
→ 0.56, -0.28
CCCCCN1C(=O)C(=O)c2cc(Br)cc(C)c21
→ -2.6, 0.77
N#Cc1c(NC(=O)C(=O)c2c[nH]c3ccccc23)sc2c1CCCC2
→ -0.27, 0.19
CCC(O)(c1ccc(F)cc1)C(CN1CCOCC1)c1ccc(Cl)cc1 (stereo not drawn)
→ -0.33, 0.78
CCCS(=O)(=O)NCCc1csc2nc(-c3cccc(F)c3)nn12
→ ., 1
CC1(C)[C@@H]2CC[C@@]1(C(=O)O)C(=O)C2
→ ., 2.7
CCCCOC(=O)Cc1c(C)nc(SCc2ccccc2)[nH]c1=O
→ 0.8, .
CCCS(=O)(=O)c1nc(S(=O)(=O)c2ccc(C)cc2)c(N(CC)CC)s1
→ -0.88, -0.92
O=C1COCC(=O)N1c1ccc(I)cc1
→ 0.24, .
O=C(Nc1ccc(F)cc1Cl)c1cc2c(s1)-c1ccccc1S(=O)(=O)C2
→ 0.06, 1.5
Cn1c(=O)c2c(nc(Oc3ccc(F)cc3Cl)n2C)n(C)c1=O
→ -0.61, 0.63
CCCc1c(C(=O)NCc2cc(F)cc3c2OCOC3)cnn1-c1ccccc1
→ -1.2, .
Cc1ccccc1-c1nc(CSCC(=O)O)c(C)o1
→ ., 0.04
CCC(Sc1nc2ncccc2o1)C(=O)Nc1ccc2c(c1)OCO2 (stereo not drawn)
→ ., 4.9
CC1=C(C#N)C(c2ccc(N(C)C)cc2)C2=C(CC(c3ccc(Cl)cc3)CC2=O)N1 (stereo not drawn)
→ 1.2, -1.4
CC1(C)CC(=O)C=C(Nc2ccc(F)cc2)C1
→ -1.2, -0.58
COc1ccc(C2NC(C(=O)O)CS2)cc1COCC(F)(F)F (stereo not drawn)
→ -1.3, .
CSc1sc(C(=O)/C=C/N(C)C)c(-c2ccccc2)c1C#N
→ -2.4, .
CCN(c1ccccc1)S(=O)(=O)c1cccs1
→ -1.1, -0.27

Remaining list, next part:
Value order – CDC25B CDK2 inh, HIV TAR-Tat
CC1CCCC(C)N1C(=O)Cn1ncc2c3ccccc3n(C)c2c1=O (stereo not drawn)
→ -1.9, .
Cc1ccc(NS(=O)(=O)c2ccc3c(c2)C(C)(C)C(=O)N3)cc1
→ ., -0.8
O=C(c1cc2ccccc2c(=O)o1)N1CCc2ccccc2C1
→ -2.2, .
O=C(CN1C(=O)CCc2cc(S(=O)(=O)N3CCCC3)ccc21)Nc1ccc2c(c1)OCCO2
→ ., 2.3
COc1ccccc1-n1cnc2cc(NCc3ccncc3)ccc21
→ 13*, 0.48
Cc1cc(NC(=O)C(C)Sc2nc(-c3ccccc3)cc(C(F)(F)F)n2)no1 (stereo not drawn)
→ -1.4, -1.6
O=C(O)c1ccc2c(c1)C(=O)N(c1ccc(Cl)cn1)C2=O
→ -1.5, .
CCSC1(SCC)N=C(N)C2(C#N)C(c3ccc(OC)c(OC)c3OC)C12C#N (stereo not drawn)
→ -2.1, .
Cc1ccc(C(=O)N2CCc3cc4ccc(C)cc4nc32)cc1
→ -0.61, -2.6
NC[C@@H]1O[C@H](c2ccccc2)Cc2c1ccc(O)c2O
→ -2, .
COc1cc(C(CC(=O)O)CC(=O)CNc2ccc3c(c2)OCCCO3)cc(OC)c1OC (stereo not drawn)
→ -0.54, .
Cc1nn(C(C)C(=O)NC2CCCCC2C)c(=O)c2c1sc1ccccc12 (stereo not drawn)
→ -1, 2.4
O=C(Nc1ccc(F)cc1)c1sc2ccccc2c1Cl
→ -1.4, 1.3
Cc1ccc(COc2ccc(C3CC(=O)Nc4nc(N)[nH]c(=O)c43)cc2)cc1 (stereo not drawn)
→ -0.93, 0.75
Cc1cc(Nc2ccc(Br)cc2)n2nc(-c3ccccc3)nc2n1
→ -0.86, 1.1
C=CCN(C(=O)c1nn(C)c2c1COc1ccccc1-2)c1ccccc1
→ -1.1, 1.4
CC(C)(C)c1nnc2sc(Cc3ccc(Cl)cc3)nn12
→ 0.01, -0.58
COc1cc(NC(=O)Nc2c(C)n(C)n(-c3ccccc3)c2=O)cc(OC)c1
→ -0.86, 0.61
Cc1cc(C)cc(Nc2nc(-c3ccccc3F)no2)c1
→ ., -0.22
CCC(C(=O)NC(C)C)n1c(C)c2cnn(-c3ccccc3)c(=O)c2c1C (stereo not drawn)
→ 0.69, 1.4
CCOc1c(Nc2ccc(F)c(Cl)c2)c(=O)c1=O
→ ., 0.08
COCCCNc1nc(-c2ccc(OC)cc2)nc2ccccc12
→ ., 2.3
CCOC(=O)NNC1(C#N)CCSC1 (stereo not drawn)
→ -1.4, .
Cc1nc2nc(NC(=O)C(C)C)nn2c(C)c1Cl
→ 1.6, 0.67
C=CCn1c(SCCOc2ccccc2OC)nc2ccccc21
→ 0.91, 0.85
CCC1(C)Oc2ccccc2C2CC(c3ccccc3)=NN21 (stereo not drawn)
→ -0.91, .
O=C(Cn1c(=O)c2cccn2c2cccnc21)NCCCN1CCCC1
→ ., 0.79
Cc1cc(C)cc(C(=O)n2nc(C)c(S(=O)(=O)N3CCOCC3)c2C)c1
→ ., 1
COc1cc(OC)cc(C2=NC(C)(C)CO2)c1
→ -0.32, .
CCC(C)NC(=O)CSc1nc2cc(OC)c(OC)cc2c2nc(C)nn12 (stereo not drawn)
→ -0.71, .
CCc1c(C)nc2nc(-c3ccccc3)[nH]n2c1=O
→ -2.3, -0.28
COc1cc(OC)cc(-c2cc3nc(C4CCNCC4)cc(=O)n3[nH]2)c1
→ 1.2, -0.83
CC(=O)Nc1ccc(C)cc1-c1nnc(SC(C)C(=O)Nc2ccc(C)cc2C)[nH]c1=O (stereo not drawn)
→ ., -0.29
Cc1ccc2c(c1)-c1c(c(C(=O)N3CCc4ccccc43)nn1C)CS2
→ ., 1.6
CC(C)C(NC(=O)CS(=O)Cc1cnn(-c2ccccc2)c1-n1cccc1)c1cccs1 (stereo not drawn)
→ ., 1.9
COc1ccc(OCC(=O)N(C)C(c2cccs2)c2c[nH]c3ccccc23)cc1 (stereo not drawn)
→ -0.14, -1.6
O=C(Cn1cc(S(=O)(=O)Cc2c(F)cccc2Cl)c2ccccc21)N1CCCC1
→ ., 0.27
CCNc1ncnc2c1oc1ccccc12
→ 1.8, 0.49
O=C(Cn1cnc(S(=O)(=O)N2CCCCC2)c1)N(Cc1ccco1)C1CCCCC1
→ ., 0.66
CC(C)CNC(=O)C(=O)Nc1c2c(nn1-c1ccccc1)CS(=O)(=O)C2
→ ., 0.75

Retrieved one by one from above (3):
Value order – CDC25B CDK2 inh, HIV TAR-Tat
CCc1c(C)nc2nc(-c3ccccc3)[nH]n2c1=O
→ -2.3, -0.28
O=C(Cn1cnc(S(=O)(=O)N2CCCCC2)c1)N(Cc1ccco1)C1CCCCC1
→ ., 0.66
COc1cc(OC)cc(-c2cc3nc(C4CCNCC4)cc(=O)n3[nH]2)c1
→ 1.2, -0.83

The results go on:
Value order – CDC25B CDK2 inh, HIV TAR-Tat
Cc1cn2c(=O)c(S(=O)(=O)N3CCN(c4cccc(Cl)c4)CC3)c(C)nc2s1
→ ., -1.2
CCN1CCN(C(=O)C2CCN(c3nnc(-n4cccc4)s3)CC2)CC1
→ ., 2.1
COc1ccc(N2CCCS2(=O)=O)cc1NS(=O)(=O)c1ccc2c(c1)OCCO2
→ ., 1.5
CC1=CC(C)(C)N(C(=O)c2cccs2)c2ccc(OC(=O)c3cccs3)cc21
→ -0.95, 0.43
Cc1nc2c(-c3ccc(F)cc3)c(C)nn2c(C)c1CCC(=O)N1CCCC1
→ 0.36, .
Cc1sc(-n2cccc2)c(C(C)NC(=O)Nc2ccc(Br)cc2)c1C (stereo not drawn)
→ 1.2, 0.01
COc1ccc(-n2nc(C(=O)NC3CCCC3)c3c4ccccc4n(C)c3c2=O)cc1
→ -1.3, .
CC(C)OCCCNC(=O)c1c(O)nc2ccccn2c1=O
→ -2, 1.8
Cc1ccc2nc3c(cc(C#N)c(=O)n3-c3ccccc3C)c(=O)n2c1
→ 0.24, 0.35
CCOc1c(Cl)cc(/C=C2\N=C(c3ccc(I)cc3)OC2=O)cc1OC
→ -1.4, .
CNc1nc(NCc2cccc(C)c2)c2cnn(C)c2n1
→ ., 1.2
COCCN1C(=O)c2ccc(-c3ccco3)n2CC1(C)C(=O)NC1CCCC1 (stereo not drawn)
→ ., 0.34
CC(=O)N1N=C(CCc2ccccc2)OC1c1ccc(Br)cc1 (stereo not drawn)
→ ., 2.4
CCCCNC(=O)N/N=C(/N)c1ccccn1
→ -1.1, .
Cc1cc(C)c(Cn2c3ccccc3c3cnn(CC(=O)O)c(=O)c32)c(C)c1
→ -0.46, -0.27
O=C(c1ccc(-c2ccc(N3CCCC3)nn2)cc1)N1CCC(N2CCCCC2)CC1
→ ., 2.1
CC(C)(C)C(=O)Nc1ccc2nc(SCC(=O)N3CCc4ccccc43)sc2c1
→ -0.36, 1.9

Of the compounds above, these have a furan ring, fused or not:
Value order – CDC25B CDK2 inh, HIV TAR-Tat
Cc1ccc2cccc(NC(=O)c3oc4cc(Br)ccc4c3C)c2n1
→ -1.2, 2
O=C(CSc1ncnc2ccccc12)NCc1ccco1
→ -1.1, .
CCOCc1ccc2oc(C(=O)OCCN(CC)CC)cc2c1
→ -0.29, 0.59
CCNc1ncnc2c1oc1ccccc12
→ 1.8, 0.49
O=C(Cn1cnc(S(=O)(=O)N2CCCCC2)c1)N(Cc1ccco1)C1CCCCC1
→ ., 0.66
COCCN1C(=O)c2ccc(-c3ccco3)n2CC1(C)C(=O)NC1CCCC1 (stereo not drawn)
→ ., 0.34
